TRPML1 ag: activates the human TRPML1 channel; activation, % (no concentration beside the values); AID 624414; TRPML1-expressing cells, Ca2+ dye fluorescence, FDSS; host cell line not named in the record; reference of the full effect not given here; 410,000 compounds, 0.12% hits; Q9GZU1; in the data active = activation above about 50%; inconclusive = about 30% to 50%; inactive = below about 30%; further: 0% is about no effect; the text of the record puts the active cut at 80%
Target sequence (Q9GZU1 whole entry, looked up): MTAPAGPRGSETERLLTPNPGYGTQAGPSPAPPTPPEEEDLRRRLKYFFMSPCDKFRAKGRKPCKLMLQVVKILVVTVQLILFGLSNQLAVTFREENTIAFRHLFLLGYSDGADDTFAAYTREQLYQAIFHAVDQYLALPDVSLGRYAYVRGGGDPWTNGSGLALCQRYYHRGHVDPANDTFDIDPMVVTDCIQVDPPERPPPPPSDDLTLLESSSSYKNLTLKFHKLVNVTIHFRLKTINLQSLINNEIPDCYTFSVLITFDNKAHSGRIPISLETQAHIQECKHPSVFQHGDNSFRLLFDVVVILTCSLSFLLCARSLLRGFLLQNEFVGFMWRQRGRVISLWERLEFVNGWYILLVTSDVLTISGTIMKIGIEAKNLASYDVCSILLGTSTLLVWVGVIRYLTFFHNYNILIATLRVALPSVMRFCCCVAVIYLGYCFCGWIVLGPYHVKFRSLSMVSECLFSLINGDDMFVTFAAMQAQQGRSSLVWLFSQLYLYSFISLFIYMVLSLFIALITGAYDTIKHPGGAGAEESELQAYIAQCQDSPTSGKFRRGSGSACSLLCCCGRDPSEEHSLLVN
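Agonist activity was taken from a 110 s kinetic Ca2+ dye read on the FDSS after pinning compounds onto TRPML1-DL cells. The cells were seeded at 1,500/well with Tet inducer, incubated about 16 h, then dye-loaded at room temperature.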
CtBP-E1A inh: inhibitors of CtBP/E1A interaction; AlphaScreen GST-E1A/His-CtBP binding, 1536-well; stronger effect = lower value; control for the full effect not named in the record; activity change, % (test concentration not listed); 340,000 compounds, 0.49% hits; AID 651724; in the data active means activity change below about -65%; inconclusive means about -30% to -65%; inactive means above about -30%; further: on the % scale 0 is the no-effect control and ±100 the full control effect
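AlphaScreen with 125 nM GST-E1A and 125 nM His-CtBP (5X stocks) in Tris pH 8.0, 300 mM NaCl, BSA, Tween 20, TCEP. Compounds preincubated 2 h at 37 deg C, then glutathione donor/nickel acceptor beads added for 1 h at 37 deg C in dark.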
TRPML1 inh: human mucolipin-1 channel inhibition. Q9GZU1. TRPML1-inducible cells, Ca2+ dye fluorescence, FDSS; stronger effect = lower value; inhibition of EC80 agonist-evoked calcium signal. activity change, negative = inhibition, % (test concentration not listed). 390,000 compounds, 0.02% hits; in the data active means activity change below about -50%; inconclusive means about -30% to -50%; inactive means above about -30%;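 further: stimulus is agonist 54-4 at its EC80 concentration; on the % scale 0 is the no-effect control and ±100 the full control effect; compound concentration not given in the record; the text of the record puts the active cut at -80%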
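TRPML1-DL cells, Tet-induced overnight (~16 h, 37 °C) at 1,500 cells/well, were loaded with Ca8 no-wash dye plus quencher for 45-90 min at room temperature. Compounds were pinned during FDSS kinetic reading; agonist 54-4 at EC80 (4 uM final) then added.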
D2 agonist: activates the human D2 dopamine receptor; activation, % (no concentration beside the values); DiscoveRx PathHunter D2 beta-arrestin, luminescence, 90 min; 100% = 57 uM dopamine signal; P14416; 360,000 compounds, 0.084% hits; in the data active = activation above about 40%; inconclusive = about 15% to 40%; inactive = below about 15%; further: compound concentration not given in the record; the text of the record calls up to 30% inactive
Target sequence (P14416 whole entry, looked up): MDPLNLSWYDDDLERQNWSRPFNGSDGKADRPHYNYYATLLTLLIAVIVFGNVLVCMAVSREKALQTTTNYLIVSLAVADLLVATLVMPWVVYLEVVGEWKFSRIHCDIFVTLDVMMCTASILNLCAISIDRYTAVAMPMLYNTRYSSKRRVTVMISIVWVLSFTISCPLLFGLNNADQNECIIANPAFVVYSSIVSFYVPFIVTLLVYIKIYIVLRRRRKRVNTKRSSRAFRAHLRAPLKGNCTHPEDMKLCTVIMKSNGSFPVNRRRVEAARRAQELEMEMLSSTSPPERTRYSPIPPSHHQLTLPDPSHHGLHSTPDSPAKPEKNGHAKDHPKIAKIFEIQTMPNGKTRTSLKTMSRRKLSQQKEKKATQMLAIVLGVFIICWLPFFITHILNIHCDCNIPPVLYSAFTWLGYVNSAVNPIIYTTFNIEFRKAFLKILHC
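DiscoveRx PathHunter D2 beta-arrestin cells (2,100/well) attached overnight, then compound-stimulated 90 min at 37 C in HBSS/10 mM HEPES/0.1% Tween-20 buffer; beta-galactosidase complementation read by luminescence after 1 h at ambient temperature. Dopamine 57 uM final (EC100) as control.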
PINK1 expr mod: PINK1 expression modulation | PINK1 immunofluorescence, high-content cytometry, 24 h | Potency, µM (top dose mostly 76.6 µM), for the others: at the top dose activation (PINK1 increase), most hits filed as activators | 410,000 compounds, 0.2% hits | AID 624263; active = well fitted activation curve with a large enough effect; inconclusive = small, poorly fitted or top-dose-only effect; inactive = flat fitted curve, though single readings scatter; cell line not stated here;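 further: potency means the concentration at half of the fitted maximal effect; % of control where 0% means no effect; nearly all actives have a fitted effect of over 65% in size; a mitochondrial uncoupler was the plate control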
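Decision-based qHTS: stable cells, 24 h exposure to five compound concentrations, CCCP as control. Fixed cells stained for PINK1 plus nuclear, mitochondrial and cell markers, cytometer read.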
Six1-Eya2 inh: Six1/Eya2 interaction inhibition | 360,000 compounds, 0.56% hits | AlphaScreen GST-Six1/His-Eya2 binding, biochemical; stronger effect = lower value; control for the full effect not named in the record | activity change, % (test concentration not listed); in the data active = activity change below about -65%; inconclusive = about -30% to -65%; inactive = above about -30%; further: on the % scale 0 is the no-effect control and ±100 the full control effect
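AlphaScreen luminescence read after one hour at 37 °C in darkness. Pin-transferred compounds met GST-Six1 and His-Eya2 protein (5X stock 250 nM/500 nM) plus glutathione donor and Ni-chelate acceptor beads (5X, 50 ug/mL).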
The depositor's hits bear a star; ? = inconclusive; . = not tested or not shown; [ ] = remark or other dose.

SMILES	TRPML1 ag	CtBP-E1A inh	TRPML1 inh	D2 agonist	PINK1 expr mod	Six1-Eya2 inh
COc1ccccc1CNC(=O)C1(C)CCN1C(=O)Cc1ccc(-c2ccccc2)cc1 (stereo not given)	-0.4	-15	.	-2.6	1.6%	2
Cc1ccc(C(=O)Nc2c(C)nc3ccccn3c2=O)cc1C	-0.4	.	-8	.	2.9%	.
CC(C)C[C@@]12C(=O)N(c3cccc(F)c3)C(=O)N1[C@H](c1ccc(F)cc1)[C@@H]1C(=O)N(C3CCCCC3)C(=O)[C@@H]12	-0.7	-2	27	-4.7	3.4%	-10
CCOC(=O)[C@]12CCC=C1N(Cc1ccccc1)C(=O)[C@H](CC(=O)NCc1ccc(C)o1)C2	-0.4	-21	.	.	0.2%	4
CCCCCC(=O)OC(CN1CCCCCC1)CN1CCCC1=O (stereo not given)	0.4	.	8	-4.1	0.8%	5
COc1ccc(N2C(=O)CSC2c2ccccc2[N+](=O)[O-])cc1 (stereo not given)	-0.1	-12	-18	-2.4	0.6%	-10
Cc1cccc(C(=O)NC(=S)Nc2ccc(S(=O)(=O)N(C)c3ccccc3)cc2)c1	-0.7	-12	3	-3.8	0.6%	-18
Cc1ccc(S(=O)(=O)N2Cc3ccccc3CC2C(=O)NC(C)(C)C)cc1 (stereo not given)	3.2	-2	4	2.7	1.7%	2
CC(=O)c1ccc(NC(=O)COC(=O)c2ccccc2Sc2ccccc2C#N)cc1	3.5	4	20	-2.9	-1.3%	3
CCOc1ccc(NC(=O)C2C3CCC4C(CCC32)C4(Cl)Cl)cc1 (stereo not given)	0.8	.	15	3.6	2.6%	2
COC(=O)c1cc2oc3ccccc3c2n1Cc1nc(-c2ccccc2Cl)oc1C	0.0	.	18	.	1.2%	.
CN(C)c1ccc2c(=O)c3ccccc3oc2n1	-0.7	-11	.	-6.0	-0.9%	-18
c1cnc2nc(CSc3ncn[nH]3)cn2c1	-0.2	-23	6	-1.0	3.3%	5
COc1ccc(C2C3=C(CC(C)(C)CC3=O)Nc3c2c(=O)n(C)c(=O)n3C)cc1OC (stereo not given)	-1.3	-1	2	0.5	-0.2%	-12
COc1ccc(/C(N)=N/OC(=O)COc2ccccc2Cl)cc1	5.9	20	-24	0.1	3.5%	35
Cc1noc(NS(=O)(=O)c2ccc(N/C=C\C(=O)c3ccc4c(c3)OCO4)cc2)c1C	0.7	-75*	2	-1.8	?	-68*
Cc1csc(NC(=O)CCc2c(C)nc3cc(-c4cccc(F)c4)nn3c2C)n1	-0.7	0	-8	0.1	2.5%	16
O=C(/C(=C(\O)c1ccccc1)c1nc2ccccc2[nH]1)c1ccccc1	1.8	-20	2	-5.4	-0.5%	-6
COc1ccc(-c2ccc3[nH]c4c(c3c2)CCN2C[C@@H]([C@H](C)OC(=O)Nc3cc(Cl)cc(Cl)c3)[C@@H](N(C)C(=O)Nc3cc(Cl)cc(Cl)c3)C[C@@H]42)cc1	0.2	-3	15	-0.1	0.4%	-3
C=CC[n+]1c(-c2ccc(Cl)cc2Cl)csc1Nc1c(C)n(C)n(-c2ccccc2)c1=O	1.5	-27	34	-7.5	5.4%	?

Gathered by group: those above with an aryl thioether with sulfur outside any ring
SMILES	TRPML1 ag	CtBP-E1A inh	TRPML1 inh	D2 agonist	PINK1 expr mod	Six1-Eya2 inh
CC(=O)c1ccc(NC(=O)COC(=O)c2ccccc2Sc2ccccc2C#N)cc1	3.5	4	20	-2.9	-1.3%	3
c1cnc2nc(CSc3ncn[nH]3)cn2c1	-0.2	-23	6	-1.0	3.3%	5

(further entries)
SMILES	TRPML1 ag	CtBP-E1A inh	TRPML1 inh	D2 agonist	PINK1 expr mod	Six1-Eya2 inh
COc1ccccc1OCc1csc(NC(=O)c2ccco2)n1	0.6	-5	-4	-2.4	1.1%	14
COc1cc(CNC(C)(C)C)cc(Br)c1OCc1cccs1	-0.3	0	4	-0.2	7.5%	6
O=C1c2ccccc2NC2(CCCCC2)N1N=C1CCCCC1	-0.1	11	-6	-4.3	-1.2%	6
COC(CN(C)C(=O)c1ccc(CS(=O)(=O)c2ccccc2C)o1)OC	0.1	3	-13	3.0	2.5%	-5
Cc1nn(C)c(C)c1S(=O)(=O)N1CCc2ccccc21	-0.9	-6	-12	-2.9	0.6%	4
O=C(c1ccccc1)n1nc(-c2ccco2)nc1NCc1ccccc1Cl	1.0	.	-6	.	-1.2%	.
N=c1c(C(=O)NCCc2ccccc2)cc2c(=O)n3ccccc3nc2n1Cc1ccco1	0.3	-2	17	-2.7	10%	0
CC(=O)Nc1cccc(C(=O)N2CCN(Cc3ccccc3)CC2)c1	1.4	-4	7	-2.3	-2.5%	3
CCCCN(C(=O)C1CCC1)c1c(N)n(CC(C)C)c(=O)[nH]c1=O	-0.7	-4	-2	-0.9	2.3%	4
COc1cccc(-c2oc3c(c2C#CC2(N)CCCCC2)C(O)CCC3)c1 (stereo not given)	0.8	-3	.	.	0.0%	-12
C[C@H]1CN([C@@H](C)CO)C(=O)c2cc(C#CC3(O)CCCC3)cnc2O[C@H]1CN(C)C(=O)C1CC1	-0.1	-21	28	-5.4	1.2%	6
Cc1ccc(CC(=O)Nc2cc(C)on2)cc1	-1.1	5	-3	0.0	1.7%	1
NNC(=S)Nc1ccc(S(=O)(=O)N2CCCCC2)cc1	1.0	-2	-10	4.2	14%	-7
CN(C(=O)NC1CC(=O)N(c2ccc3c(c2)OCCO3)C1)c1ccccc1 (stereo not given)	0.0	-11	33	0.0	-1.7%	-2
O=C(c1ccc(-n2cncn2)c([N+](=O)[O-])c1)N1CCN(S(=O)(=O)c2ccccc2Br)CC1	0.2	3	23	5.7	0.4%	0
COc1ccc(NC(=O)c2ccc(-c3nn(C)c(=O)c4ccccc34)cc2)cc1C(N)=O	1.3	-7	11	-2.0	18%	-13
COC(=O)C1C(=O)C(C(=O)c2ccccc2)C(=O)CC1(C)C (stereo not given)	0.1	12	4	0.8	0.1%	-1
COc1cccc(CN(C)C(=O)C23CC4CC(CC(NC(C)=O)(C4)C2)C3)c1OC	-0.4	-1	8	0.3	0.2%	13
CC1(C(=O)Nc2ccc3nc[nH]c3c2)CCN1C(=O)CCc1ccccc1 (stereo not given)	-0.6	-6	.	-5.4	1.2%	2
COC(=O)CCC(=O)Nc1c(C)n(C)n(-c2ccccc2)c1=O	-0.4	2	-14	-4.1	-0.6%	8

Part of the list above, reformatted:
structure | TRPML1 ag | CtBP-E1A inh | TRPML1 inh | D2 agonist | PINK1 expr mod | Six1-Eya2 inh
CC(=O)Nc1cccc(C(=O)N2CCN(Cc3ccccc3)CC2)c1 | 1.4 | -4 | 7 | -2.3 | -2.5% | 3
CCCCN(C(=O)C1CCC1)c1c(N)n(CC(C)C)c(=O)[nH]c1=O | -0.7 | -4 | -2 | -0.9 | 2.3% | 4

The results go on.
SMILES	TRPML1 ag	CtBP-E1A inh	TRPML1 inh	D2 agonist	PINK1 expr mod	Six1-Eya2 inh
Cc1ccc(C(=O)NCC(c2ccco2)S(=O)(=O)c2ccc(Cl)cc2)cc1C (stereo not given)	0.9	.	-21	.	1.4%	.
O=S(=O)(Nc1nc2ccccc2nc1Nc1ccccc1Br)c1ccccc1	0.0	.	6	.	-2.7%	.
O=C(O)CCSc1nnc(-c2ccc(Cl)cc2Cl)o1	2.0	.	2	.	1.0%	.
Cc1cc(C)cc(OCC(O)CN2CC(C)OC(C)C2)c1 (stereo not given)	0.7	-3	26	0.2	0.4%	-2
CC1CCN(C(=O)/C(=C\c2cccs2)NC(=O)c2ccccc2)CC1	-0.7	0	1	-6.9	-0.5%	7
COCc1c(C(=O)OCC(=O)NCCc2ccc(S(N)(=O)=O)cc2)oc2ccccc12	-0.3	.	-13	-2.8	-1.5%	3
Cc1cc(NCc2ccc(Cl)cc2)n2cnnc2n1	0.1	.	0	.	1.7%	.
COc1ccc(Cl)cc1NC(=S)NNC(=O)CC(C)C	-0.4	13	31	-4.5	-1.1%	6
CCCCCCCCN1C(=O)[C@H](CC(=O)NCCc2ccccc2OC)C[C@@]2(C(=O)OCC)CCCC=C12	0.2	-4	.	.	?	-18
CCN(CC(=O)Nc1c(F)cccc1F)C(=O)Cn1[nH]c(=O)c2ccccc2c1=O	0.8	0	-1	-4.4	2.5%	2
CCOc1ccc(-c2nc(CN(Cc3ccccc3)C[C@@H]3CCC(=O)N3)c(C)o2)cc1	1.5	4	64	-0.2	3.7%	-15
Cc1nn(C(C)C(=O)NCc2ccco2)c(C)c1[N+](=O)[O-] (stereo not given)	-0.9	.	-9	-2.7	0.3%	7
CN(C)c1cc(-c2ccc(Cl)cc2)oc(=O)c1Cl	1.9	-1	6	-0.4	1.0%	-1
CCOc1ccc(C(C)=O)cc1Cn1nc(C(=O)O)c2ccccc2c1=O	2.8	-2	-11	0.3	0.6%	6
CC(=O)N(Cc1cc2ccccc2[nH]c1=O)c1ccc(C)cc1	.	.	.	0.5	-0.7%	0
Cc1cc(C)cc(N2C(=O)CC(n3ccnc3)C2=O)c1 (stereo not given)	1.4	-1	0	2.5	-0.4%	10
CCOC(=O)c1c(N)sc(C(=O)Nc2ccccc2F)c1C	2.6	.	12	-3.0	1.6%	0
Cc1ccccc1Cn1nc(C)c(NC(=O)c2cc(-c3cccs3)on2)c1C	2.3	-6	22	3.7	-2.6%[38.3 µM]	-1
CC(C)(C)OC(=O)CC(S(=O)(=O)c1ccccc1)S(=O)(=O)c1ccccc1	0.0	-3	-8	-6.5	1.6%	9
CCN(C(=O)CSc1ccc2ccccc2n1)C1CCS(=O)(=O)C1 (stereo not given)	1.0	-15	8	-3.3	0.9%	-11
O=C(O)C1(P(=O)(c2ccccc2)c2ccccc2)CCC1	0.7	-6	-22	-5.1	-0.8%	-10
CN(C)C(=O)N1CCC(C(=O)N2CCCC(C(=O)c3ccc(C(C)(C)C)cc3)C2)CC1 (stereo not given)	-0.2	.	4	-1.8	0.0%	19
O=C(c1ccc(Br)cc1)c1coc2ccc(O)cc12	2.4	-4	-7	0.7	1.7%	-2
O=C(NCCOc1ccccc1Cl)c1ncn[nH]1	-0.2	10	-12	-4.4	2.7%	2
O=C(CCc1ccccc1)NC1(Cc2ccccc2)CCN(CCc2cccs2)C1=O (stereo not given)	-0.5	6	-4	0.3	-0.4%	0
Cc1ccc(OCCCn2c(-c3ccc(Cl)cc3)nc3ccccc3c2=O)cc1C	-0.1	.	-15	.	1.3%	.
COc1ccc(CCC(C)N2CCOCC2)cc1 (stereo not given)	-0.6	7	3	0.4	0.2%	-2
CC1CCCCC12NC(=O)N(CC(=O)Nc1sc3c(c1C(N)=O)CCC3)C2=O (stereo not given)	3.4	-8	28	-4.9	0.4%	-11
Cc1ccc(S(=O)(=O)Oc2ccc(/C=C(/NC(=O)c3ccccc3)C(=O)NC(C)C(=O)O)cc2)cc1 (stereo not given)	1.6	1	-20	2.8	-0.4%	2
CC(=O)N/N=C(\C)c1cccc(NC(=O)c2cccs2)c1	1.4	-9	18	-3.6	1.3%	-5

Source: PubChem

Compounds were not picked by outcome; any-hit rate near 1%.
